High-throughput results: PubChem BioAssay, several laboratories
eIF4H inh = human eIF4H binding inhibitors, primary screen, translation initiation inhibitor project, biochemical, uHTS, fluorescence polarization; Eukaryotic translation initiation factor 4H (Homo sapiens), Q15056; eIF4H fluorescence polarization binding assay; inhibition, % at 35 µM; hit rate 0.94% among 290,000;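 active = 50% or more with normal probe brightness, or confirmed in later tests; inconclusive = above 50% with abnormal brightness, or retests that disagree; inactive = below 50% or failed in later tests; about a fifth of its hits are not listed in these tables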;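 also: calls also rest on retests at 20 µM and on dose response follow-up; 0% = protein and probe with vehicle and 100% = probe without protein; strong numbers were not always called active; many hits fall short of the cut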
Yeast UUG start = modulators of yeast start codon fidelity, primary screen, whole organism, S. cerevisiae, single point, plate reader; S. cerevisiae UUG-firefly luciferase reporter, luminescence/redox ratio; activity score, % at 18.7 µM; hit rate 0.13% among 350,000; AID 602363, 2012;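 active = replicate mean at a twofold rise or more, about +100% in these data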;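 also: firefly luciferase made from a UUG start codon reports start codon fidelity; reporter light over untreated wells divided by growth signal over untreated wells; some hits fall short of that in this replicate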
PABP FP inh = PABP poly(A) RNA binding inhibitors, primary screen, biochemical, fluorescence polarization, uHTS | Polyadenylate-binding protein 1 (Homo sapiens), P11940 | hit rate 1% among 290,000 | inhibition, % at 35 µM;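 active = 50% or more with normal probe brightness, or confirmed in later tests; inconclusive = above 50% with abnormal brightness, or retests that disagree; inactive = below 50% or failed in later tests; about a fifth of its hits are not listed in these tables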;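 also: calls also rest on retests at 20 µM and on dose response follow-up; controls were probe without protein and protein plus probe with vehicle; some compounds called inactive have numbers as strong as hits; many hits fall short of the cut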
Target sequence (P11940 whole entry, looked up): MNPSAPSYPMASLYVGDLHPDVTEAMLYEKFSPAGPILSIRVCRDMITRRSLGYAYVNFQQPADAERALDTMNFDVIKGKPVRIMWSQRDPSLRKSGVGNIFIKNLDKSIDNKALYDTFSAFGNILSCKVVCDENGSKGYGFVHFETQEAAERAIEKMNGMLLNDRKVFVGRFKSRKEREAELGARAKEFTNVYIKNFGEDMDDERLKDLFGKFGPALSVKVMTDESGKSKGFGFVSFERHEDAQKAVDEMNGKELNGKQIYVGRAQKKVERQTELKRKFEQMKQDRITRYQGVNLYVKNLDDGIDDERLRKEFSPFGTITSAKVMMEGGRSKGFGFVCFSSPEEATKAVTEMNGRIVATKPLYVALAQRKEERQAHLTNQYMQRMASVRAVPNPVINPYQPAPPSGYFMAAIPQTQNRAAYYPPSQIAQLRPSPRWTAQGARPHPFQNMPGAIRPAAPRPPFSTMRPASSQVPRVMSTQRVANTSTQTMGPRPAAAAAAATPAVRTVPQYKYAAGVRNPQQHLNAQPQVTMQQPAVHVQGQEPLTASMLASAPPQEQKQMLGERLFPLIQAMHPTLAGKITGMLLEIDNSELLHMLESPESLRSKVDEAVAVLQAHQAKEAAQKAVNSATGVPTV
Rce1 inhib = yeast Rce1p protease inhibitors, primary screen, biochemical, fluorescence, cell-free homogeneous; AID 2563, 2010; calls only; yeast membranes, quenched prenylated peptide cleavage fluorescence; CAAX prenyl protease 2 (Saccharomyces cerevisiae (strain ATCC 204508 / S288c)), Q03530; hit rate 0.27% among 290,000;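 active = fall in fluorescence gain of 50% or more versus controls, with final raw signal at or below 3038400; inconclusive = same 50% fall but final raw signal above 3038400; inactive = fall in fluorescence gain under 50%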;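 also: plate controls were neutral control wells for no effect and wells lacking membranes for full effect; tested at 10 µM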
Target sequence (Q03530 whole entry, looked up): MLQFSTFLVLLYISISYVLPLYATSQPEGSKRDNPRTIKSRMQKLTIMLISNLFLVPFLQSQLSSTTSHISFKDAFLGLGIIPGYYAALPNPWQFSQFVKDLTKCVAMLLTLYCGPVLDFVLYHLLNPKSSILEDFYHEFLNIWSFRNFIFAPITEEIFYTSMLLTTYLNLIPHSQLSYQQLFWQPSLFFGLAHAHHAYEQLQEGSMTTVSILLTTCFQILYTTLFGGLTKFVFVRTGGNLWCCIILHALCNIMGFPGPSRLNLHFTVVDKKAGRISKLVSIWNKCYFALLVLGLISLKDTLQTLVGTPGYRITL
MT1-MMP act inh = blockers of MT1-MMP proenzyme processing, primary screen, HT1080 RFP-PRO-GFP cells, GFP/RFP fluorescence. Matrix metalloproteinase-14 (Homo sapiens), P50281. hit rate 0.061% among 360,000. AID 651647, 2012. GFP/RFP ratio fluorescence, overnight; percent of plate control window, DMSO zero. GFP/RFP ratio change, % at 20 µM;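 active = GFP/RFP ratio change of at least 30% with cell ATP level not reduced by more than half and red fluorescence within 50% of control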; also: strong numbers were not always called active
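Assay system: HT1080 RFP-PRO-GFP cells | Dosing: 20 µM single dose, 1% DMSO | Incubation: Cells overnight before dosing, compound overnight, 37 °C, 5% CO2 | Evaluation: GFP/RFP fluorescence ratio | Control set: DMSO-only wells and HT1080 RFP-L50D-GFP cell wells as references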
CSC inhib = cancer stem cell viability inhibitors, primary screen, luminescence; cancer stem cell-like cells viability; inhibition, % at 7.5 µM; hit rate 1.1% among 300,000;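 active = mean at 75% or more and at least half the replicates too; inconclusive = mean and replicates disagree; tested in HMLE shEcad cells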;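 also: 0% = median of negative and 100% = median of positive control wells; the first replicate is given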
Env fusion inh = inhibitors of HIV-1 Env-driven cell-cell fusion, primary screen, HeLa-JRFL effector, CEM21 target cells, luciferase. inhibition, % at 12.3 µM. AID 651610, 2012. hit rate 1.1% among 360,000;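 active = mean replicate inhibition score of at least 50 and every replicate individually at or above 50; inconclusive = only one of the two criteria met; inactive = mean below 50 and not all replicates reaching 50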;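 also: 0% = plate neutral controls and 100% = maraviroc near 300 nM; one replicate is shown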
eIF4H inh retest = second read-out of eIF4H inh, no call of its own (marks repeat the call); inhibition, %; compound at 20 µM; confirmation average;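 mean of two retest wells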
PABP FP inh retest = also measured in PABP FP inh; calls as there; inhibition, %; compound at 20 µM; confirmation repeats;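 mean of two retest wells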
MT1-MMP act inh RFP = further read-out of MT1-MMP act inh, marked with its call; RFP signal change, %; measured here: RFP expression control read;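 0 = vehicle wells; hits needed this value within 50% of zero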
An asterisk follows results filed as active; i = inactive; u = inconclusive; x = not tested or not shown.

SMILES	eIF4H inh	Yeast UUG start	PABP FP inh	Rce1 inhib	MT1-MMP act inh	MT1-MMP act inh RFP	CSC inhib	Env fusion inh	others
CN(C)CCNC(=O)c1ccc(CS(=O)(=O)c2c(Cl)cccc2Cl)o1	2	-10	-10	i	-1	4	x	-2
CC(C)N(Cc1ccccc1)S(=O)(=O)c1ccc(-n2cccn2)cc1	x	-21	x	x	-1	-10	x	-14
CCOC(=O)N1CCN(C(=O)C2CCCN(c3nc4ccc(OCC)cc4s3)C2)CC1 (stereo not drawn)	3	-4	6	i	-1	1	1	11
Cn1nc(CC(=O)Nc2ccc3c(c2)OCCO3)c2ccccc2c1=O	-3	x	-4	i	0	-28	1	x
Cc1ccccc1OC/C(O)=C(\C#N)c1nc2ccccc2[nH]1	2	-11	8	i	5	1	-3	x
O=C(Nc1cc2c(oc1=O)CCCC2=O)c1cccc(Cl)c1	-4	-13	2	i	1	9	-10	-9
Cc1cnc2cc(Cl)c(Cl)cc2n1	-1	-3	-5	i	6	3	10	-16
CCCc1cc(C(=O)Nc2cccc3ccccc23)n(C)n1	-5	-14	-9	i	0	-1	16	1
CCCCNC(=O)[C@H](CSCc1ccccc1)N1Cc2ccccc2C1=O	-4	0	-7	i	-4	-6	-8	-2
Cc1nn(CC(=O)Nc2ccc(Cl)cc2)c(=O)c2cc(-c3ccccc3)nn12	-12	-13	-3	i	x	x	-11	-11
CCOC(=O)c1ccccc1NC(=O)CSc1nc(N)cc(=O)[nH]1	-11	-12	-8	i	9	2	-4	-27
CC(C)N(C(=O)Nc1ccc2nccnc2c1)C(C)C	69	-17	16	i	0	6	-2	x	eIF4H inh retest=42;PABP FP inh retest=16
CCOc1cc2c(C#N)c(N3CCOCC3)nc(N)c2c(N)n1	73*	-24	57*	i	-5	4	-13	x
CCCCCN(C(=O)CCC(=O)OC(C)C(=O)NCc1ccccc1)c1c(N)n(CCCC)c(=O)[nH]c1=O (stereo not drawn)	x	x	x	i	-2	-2	-17	-2
COc1ccc(OCc2nnc(NC(=O)Nc3ccc(F)cc3)s2)cc1	-10	-1	3	i	3	2	3	23
CCn1cc(C(=S)N2CCC(C(N)=O)CC2)c2ccccc21	10	-26	18	i	-4	-1	-7	-15
CCOC(=O)C1=NN(C(=O)Cc2ccccc2)C(O)(C(C)(C)C)C1 (stereo not drawn)	-10	x	1	i	2	0	-15	0
O=S(=O)(c1cc(F)ccc1F)N1CCC2(CC1)OCCN2S(=O)(=O)c1cccs1	x	x	x	i	-1	-7	13	x
O=C(CN1CCN(S(=O)(=O)c2ccc(Cl)cc2)CC1)Nc1ccc(N2CCOCC2)cc1	-9	15	-16	i	3	5	-9	0
C/C(=N\NC(=O)CSc1nc2ccccc2[nH]1)c1ccncc1	-11	-12	0	i	-1	-4	-11	-77
Cc1cc(C)c2c(n1)SCC(=O)N2CC(=O)Nc1ccccc1Cl	-3	4	9	i	2	2	x	1
COCCNC(=O)Nc1ccc2nc(-c3ccco3)c(-c3ccco3)nc2c1	u	x	u	x	-32	-5	5	7
O=c1[nH]c(CN2CCN(c3ncccn3)CC2)nc2c(Br)cc(Br)cc12	-8	-6	1	i	1	2	28	8
CCO/C(C)=N/n1c2nc3ccccc3nc2c2c(=O)n(C3CCCC3)c(C)nc21	-2	-3	-11	i	2	-3	-7	x
CC(=O)/C=C/n1c(=S)oc2ccccc21	2	x	-6	i	x	x	-1	-345
SMILES	eIF4H inh	Yeast UUG start	PABP FP inh	Rce1 inhib	MT1-MMP act inh	MT1-MMP act inh RFP	CSC inhib	Env fusion inh	others
O=c1[nH]nc(Br)c(=O)n1C(c1ccccc1)c1ccccc1	x	-4	x	x	5	-1	x	-21
Cc1cc(Br)ccc1NC(=O)c1sc2ncn(CC(=O)N3CCN(c4ccccn4)CC3)c(=O)c2c1C	-8	10	-12	i	2	-2	19	-2
CC1CN(C(=O)C(C)N2C(=O)c3ccccc3C2=O)CC(C)O1 (stereo not drawn)	-5	9	6	i	13	-1	-14	6
Clc1cncc(Cl)c1N/N=C/c1ccncc1	-2	-8	6	i	-26	-12	10	18
CN(C)/C=C/C(=O)/C=C/c1cn(-c2ncc(C(F)(F)F)cc2Cl)c2ccccc12	-2	x	-4	i	-13	1	36	x
COC(=O)c1ccccc1COc1cccn2c(N(C)CC3CC3)c(C)nc12	x	5	x	x	10	-14	x	2
C=CC1CN(CC(=O)OC)S(=O)(=O)c2ccccc21 (stereo not drawn)	-5	-11	13	i	8	6	-6	-14
COc1cccc(S(=O)(=O)NCc2ccc(C(=O)Nc3ccc(Cl)c(Cl)c3)cc2)c1	-13	0	-12	i	2	-17	4	x
COc1ccc(CNC(=O)C2CCN(S(=O)(=O)c3ccc4c(c3)C(C)(C)C(=O)N4C)CC2)cc1	-22	-16	-14	i	4	-2	11	21
CCCCOc1ccc(C(=O)N(Cc2ccco2)C2CCS(=O)(=O)C2)cc1 (stereo not drawn)	-3	7	9	i	3	-2	1	x
CNc1nc(N/N=C/c2ccc([N+](=O)[O-])cc2)nc(Nc2ccccc2)n1	4	x	-3	i	13	2	3	-8
COC1=CC(=O)C=C(OC)C1=O	x	-20	x	x	-4	0	x	-41
c1cnn(-c2cc(N3CCOCC3)ncn2)c1	-3	-11	-3	i	-2	1	-21	11
CC(=O)N1c2ccc(S(=O)(=O)NCCC(=O)Nc3cccc(Cl)c3)cc2CC1C (stereo not drawn)	3	-13	6	i	1	-1	1	5
COc1ccccc1NC(=S)NCc1ccccc1	-5	-30	0	i	-1	1	-12	-12
O=C1C2CCCN2C(=S)N1c1cc(Cl)ccc1Cl (stereo not drawn)	x	-30	x	x	0	1	x	-9
O=C(NNC(=O)c1ccccc1Br)c1ccc(SCC2CCCO2)c([N+](=O)[O-])c1 (stereo not drawn)	8	x	-4	i	-2	0	12	-32
CC(=O)c1cc(CN2C(=O)c3ccccc3C2=O)cs1	0	-11	-6	i	0	1	-16	-30
C1CCN(c2nc(N3CCCC3)nc(N3CCNCC3)n2)C1	-7	x	48	i	x	x	x	x
COc1ccc(-n2c(CNc3ccc(C)cc3)nnc2SCc2ccccc2)cc1	1	x	12	i	-4	-5	34	11
O=C(CNC(=O)c1ccccc1Br)N/N=C/c1cccs1	-5	-14	-5	i	-6	-1	0	-25
O=c1[nH]nc(CNc2ccc(Cl)cc2Cl)c2ccccc12	9	-30	3	i	-1	-5	9	-5
CSCCC(NC(=O)c1ccco1)C(=O)NC1CCC(C)CC1 (stereo not drawn)	x	-4	x	x	-2	-1	-8	x
Cc1ccc2cc(C#N)c(N3CCN(C(=O)c4ccccc4)CC3)nc2c1	-4	2	7	i	-5	-2	-1	-9
COc1ccccc1CNC(=O)c1cccc(S(=O)(=O)N2CCN(c3ccc(F)cc3)CC2)c1	x	-12	x	x	4	-9	x	17
SMILES	eIF4H inh	Yeast UUG start	PABP FP inh	Rce1 inhib	MT1-MMP act inh	MT1-MMP act inh RFP	CSC inhib	Env fusion inh	others
CC(C)(C)c1csc(N/N=C/c2cccnc2)n1	0	-18	17	i	3	-10	1	-3
O=C(Cc1c2ccccc2nc2ccccc12)c1ccccc1	-2	x	2	i	-2	-1	0	x
c1ccc(-c2ccccc2OCCOCCN2CCc3ccccc3C2)cc1	-6	x	3	i	2	0	3	39
CC1(c2ccccc2Br)NC(=O)N(CC(=O)N2CCc3ccccc3C2)C1=O (stereo not drawn)	x	-8	x	x	4	-3	-18	6
Cc1cccc(Nc2nc(C)cc(C)c2C#N)c1	-2	-17	6	i	-2	0	-16	2
CC(C)CN1C(=O)C(=O)N(CC(=O)N(C)CC(=O)Nc2ccc(F)cc2)C1=O	x	-23	x	x	-2	2	-3	x
CCC(=O)OCC(=O)Nc1ccc(OC)cc1[N+](=O)[O-]	1	x	12	i	13	9	9	-42
CCC(=O)Nc1nnc(SCC(=O)NCC2CCCO2)s1 (stereo not drawn)	-6	-11	5	i	-1	2	2	-4
CCOc1ccc(/C=C/C(=O)Nc2cccc(C(C)=O)c2)cc1	-3	x	13	i	-4	-17	7	1
COc1ccc(C2CC(c3ccccc3)=NN2C(=O)CCC(=O)O)cc1 (stereo not drawn)	-4	-1	-1	i	1	1	-13	12
CC1(C)Cc2cccc(OCC(=O)OCC(=O)Nc3ccc(S(N)(=O)=O)cc3)c2O1	x	17	x	x	-5	2	x	7
CCSc1nnc2nc(C)cc(C)n12	0	-12	-3	i	-1	3	-9	-11
Cc1ccc(O)c(-c2cc(-c3ccccc3[N+](=O)[O-])[nH]n2)c1	-11	x	-9	i	10	3	44	-55
Cc1c(C(=O)N2CCN(c3ccc(F)cc3)CC2)sc2ncnc(N3CCN(c4ccccn4)CC3)c12	3	-9	2	i	1	-15	14	46
COc1cc(OC)c(C2=NOC(C(=O)Nc3c(C)nn(CC(=O)N4CCCC4)c3C)C2)cc1Cl (stereo not drawn)	6	5	10	i	1	1	-8	x
Brc1cccc(OCCCNC2CCCC2)c1	-1	4	-2	i	0	0	-5	-40
Cc1cc(O)c(C(=O)c2ccccc2C(=O)O)cc1C	-9	0	11	i	-3	3	-14	x
CCC(=O)C1CCCN(C(=O)CCc2nnc(C3(c4ccc(Cl)cc4)CCC3)o2)C1 (stereo not drawn)	-5	2	-20	i	-3	-3	14	17
COc1cccc(C2(O)CCN(C(=O)C(C)C)CC2)c1	4	-4	12	i	3	6	-3	-7
C#CCn1c(O)c(N=NC(=O)CNC(=O)c2cccnc2)c2ccccc21	1	-26	3	i	-3	4	-4	-5
CCN(CC)C(=O)Oc1ccc(OC(=O)N(CC)CC)cc1	2	x	-13	i	1	-5	-12	8
Cc1ccc(-n2ncc3c(=O)n(CC(=O)NCC4CCCO4)cnc32)cc1 (stereo not drawn)	-10	-16	-4	x	-6	-6	-2	x
CCN(CC)C(=O)C1CCCN(Cc2ccc(OC)c(C)c2C)C1 (stereo not drawn)	3	-10	4	i	1	-2	-9	-31
Cc1cc(C)c(S(=O)(=O)c2ccccc2)c(OC(=O)c2c(Cl)cc(Cl)cc2Cl)n1	-10	-12	-2	i	5	-7	-4	-39

Already shown: 4 of the compounds above.
SMILES	eIF4H inh	Yeast UUG start	PABP FP inh	Rce1 inhib	MT1-MMP act inh	MT1-MMP act inh RFP	CSC inhib	Env fusion inh	others
COc1ccccc1CNC(=O)c1cccc(S(=O)(=O)N2CCN(c3ccc(F)cc3)CC2)c1	x	-12	x	x	4	-9	x	17
CC(C)(C)c1csc(N/N=C/c2cccnc2)n1	0	-18	17	i	3	-10	1	-3
O=C(Cc1c2ccccc2nc2ccccc12)c1ccccc1	-2	x	2	i	-2	-1	0	x
c1ccc(-c2ccccc2OCCOCCN2CCc3ccccc3C2)cc1	-6	x	3	i	2	0	3	39

A portion of the library, so the mix of outcomes need not match the whole.
